Screening data as filed in PubChem BioAssay.
VDR inh – vitamin D3 receptor (human) inhibition. Potency, µM, for inactives: max response, negative = inhibition, hits mostly inhibitors. VDR-SRC2-3 peptide fluorescence polarization, 2 h. 0.93% of 400,000 active. P11473. AID 504847; active = well fitted inhibition curve with a large enough effect; inconclusive = small, poorly fitted or top-dose-only effect, or another doubt; inactive = no such curve, though single readings can be large or run the other way; note: series mostly up to about 120 µM
Target sequence (P11473 whole entry, looked up): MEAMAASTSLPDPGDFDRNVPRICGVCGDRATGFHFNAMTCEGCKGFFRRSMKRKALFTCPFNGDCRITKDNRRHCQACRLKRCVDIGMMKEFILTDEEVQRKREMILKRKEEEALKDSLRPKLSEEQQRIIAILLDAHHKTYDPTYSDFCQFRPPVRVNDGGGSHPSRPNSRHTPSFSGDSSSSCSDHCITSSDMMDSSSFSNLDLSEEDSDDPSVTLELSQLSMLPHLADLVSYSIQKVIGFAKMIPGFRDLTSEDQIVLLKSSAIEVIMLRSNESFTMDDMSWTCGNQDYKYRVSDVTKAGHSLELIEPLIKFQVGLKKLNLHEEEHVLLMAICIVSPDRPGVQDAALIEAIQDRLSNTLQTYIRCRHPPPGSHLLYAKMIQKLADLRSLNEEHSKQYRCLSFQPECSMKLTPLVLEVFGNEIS
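Inhibition of the VDR/SRC2-3 peptide interaction is quantified by fluorescence polarization. Compounds (23 nl, pintool) incubate with the reagents for 2 hours at ambient room temperature.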
An asterisk follows results filed as active; ? = inconclusive. % is set by controls: 0 for no effect and ±100 for the full control effect; potency is the fitted concentration of half-maximal effect. This is a subset. The share of hits here may be higher or lower than overall.

SMILES	VDR inh
NC(=O)c1nsc(C(=O)N(Cc2cccnc2)C(C(=O)NCc2ccc(F)cc2)c2ccc(O)cc2)c1N (stereo not drawn)	9%
O=C(O)c1sccc1S(=O)(=O)N1CCOCC1	-15%
COC(=O)c1ccc(NC(=O)C(=O)c2cn(CC(=O)N3CCOCC3)c3ccccc23)cc1	12%
O=C(NNC(=O)C1CC1)c1cccc([N+](=O)[O-])c1	6%
O=C(NN1C(=O)C2C(C1=O)C1C=CC2C12CC2)c1ccccc1Cl (stereo not drawn)	3%
COc1ccc(C(=O)CSc2nnc(CN3CCCCC3)n2-c2ccc(F)cc2)cc1OC	-14%
Cc1ccc(CN2C(=O)CCC2C(=O)NCc2cccnc2)cc1 (stereo not drawn)	3%
COc1cc(C(=O)OCCCN2CCOCC2)ccc1O	5%
C=CCCC(=O)NC1CCCc2c1cnn2-c1ccccc1F (stereo not drawn)	-13%
CCN(CCCn1c(=S)[nH]c2ccc(N3CCOCC3)cc2c1=O)c1ccccc1	-10%
O=C(COc1ccc(Cl)cc1)Nc1cc2c3c(c1)CC(=O)N3CCC2	10%
CC1(C)Cc2ccccc2-c2nnc(SCc3ccc(C#N)cc3)n21	-7%
CC(C)c1ccc(NC(=O)CSC2=Nc3ccccc3C3=NC(CCC(=O)NCc4ccco4)C(=O)N23)cc1 (stereo not drawn)	14%
Cc1cc([N+](=O)[O-])ccc1NC(=O)c1cc2ccccc2o1	-7%
COC(=O)c1nn(-c2ccccc2)c(Cl)c1/C=N/OCc1ccc(C)cc1	9%
Cn1cc(CCC(=O)N2CCCC(Nc3ccc(F)cc3)C2)cn1 (stereo not drawn)	0%
C[C@H](CO)N1C[C@H](C)[C@@H](CN(C)C(=O)Nc2ccc(C(F)(F)F)cc2)Oc2ccc(NC(=O)Nc3ccccc3)cc2C1=O	-11%
Cc1ccc2nsnc2c1N(S(C)(=O)=O)S(C)(=O)=O	6%
COCCN(Cc1cc2cc3c(cc2nc1Cl)OCO3)C(=O)c1cccc(C)c1	-17%
CCC(C)NC(=O)c1cn(C)c(=O)c2cc(OC)c(OC)cc12 (stereo not drawn)	7%
Cc1ccn2c(=O)nc(SCC(=O)Nc3cccc4ccccc34)nc2c1	7%
CC(C)(C)n1ncc2c(=O)n(CC(=O)Nc3ccc4c(c3)OCCO4)cnc21	11%
CC(=O)c1c(C)[nH]c(C(=O)Nc2cccc(S(=O)(=O)N3CCCC3)c2)c1C	-3%
CCCCCOc1ccc(Cn2ccnc2)cc1[N+](=O)[O-]	2%
O=C(Nc1cccc(C(F)(F)F)c1)C1CCCN(c2ncccn2)C1 (stereo not drawn)	-10%
COc1ccc(C(=O)Nc2ccccc2[N+](=O)[O-])cc1S(=O)(=O)N1CCOCC1	-6%
CC(=O)c1cccc(N(CC(=O)NC2CCCCC2)C(=O)c2csnn2)c1	-2%
Cc1nc2ccccc2c2oc(C(=O)NCCCN3CCCC3=O)cc12	-4%
C/C(=N\NS(=O)(=O)c1ccc(Cl)c([N+](=O)[O-])c1)c1ccc(C)o1	?
CCN(CC)CCNc1ncnc2c1sc1nc(N3CCOCC3)c3c(c12)CCCC3	2%
COc1ccc(C(=O)N/N=C/c2ccc(SC)cc2)cc1	7%
COc1ccc(-c2csc(N(C)C(=O)c3ccco3)n2)cc1	-4%
COc1ccc(Nc2nnc(SCC(=O)c3cc(C)n(CC4CCCO4)c3C)s2)cc1 (stereo not drawn)	14%
COc1ccc(-c2cc(C#N)nc(N3CCN(c4ccccc4)CC3)n2)cc1	2%
CCCCNC(=O)c1ccccc1C(=O)NC1(C(=O)NCCCC)CCCC1	-2%
COc1ccc(NC(=O)Cn2c(=O)c3ccccc3n3nncc23)cc1Cl	?
Cc1cc2ccccc2c(=O)n1CC(=O)Nc1ccc2c(c1)OCCO2	13%
CCOc1ccc(C(=O)Nc2nnc(NC(=S)Nc3ccccc3)s2)cc1	-21%
O=C(/C=C/c1cccc(F)c1)N1CCN(c2ccccn2)CC1	11%
COc1ccc(N2CCN(CC(=O)Nc3ccc(C)cc3Br)CC2)cc1	-4%
Nc1nc(SCc2nnc(SCC(=O)O)n2-c2ccccc2)nc2sc3c(c12)CCCC3	20%
Cc1nn(-c2ccccc2)c(OC(=O)c2ccccc2Br)c1S(=O)(=O)c1ccccc1	7%
COc1cc2c(cc1OC)CN(CC(=O)Nc1ccc(C)c(S(=O)(=O)N3CCOCC3)c1)CC2	2%
CS(=O)(=O)NCC(c1ccco1)N1CCN(c2ccccc2)CC1 (stereo not drawn)	-6%
Cc1ccc(S(=O)(=O)Nc2ncc(C(F)(F)F)cc2Cl)cc1	-19%
COC(=O)C(C)(C)ONC(=O)Nc1ccccc1	0%
CCSc1nc2sc3c(c2c(=O)n1CC)CCC3	-13%
O=C(/C=C/c1ccccc1)OCc1cnc(Cl)s1	-14%
COc1ccccc1CNC(=O)c1cn(C)c(=O)c2cc(OC)c(OC)cc12	?
Cc1ccc(Cl)cc1NS(=O)(=O)c1ccc2oc(=O)c3ncn(C)c3c2c1	-1%

Additional results
SMILES	VDR inh
COC(=O)C1OC(=O)C2O[C@@]23[C@]2(C)C(OC(C)=O)CC4C(C)(C)C(=O)CC[C@]4(C)C2CC[C@@]13C (stereo partly drawn)	-3%
N/C(=N\OC(=O)COc1cc(Cl)c(Cl)cc1Cl)c1ccccn1	-10%
COc1ccc2nc(NC(=O)c3cc(=O)c4ccccc4o3)sc2c1	8%
O=C1CC(c2ccsc2)Sc2ccccc2N1 (stereo not drawn)	-4%
COC(=O)C(C(=O)OC)C(CC(=O)c1ccc(C)cc1)c1cc(OC)c(OC)c(OC)c1 (stereo not drawn)	-5%
O=C(NCC1(N2CCCCC2)CCCCC1)c1cccc(S(=O)(=O)Nc2ccc(F)cc2)c1	-15%
COc1cc(OC)c(N2CC(C(=O)NCCC3=CCCCC3)CC2=O)cc1Cl (stereo not drawn)	10%
COc1ccc(NC(=O)c2c(-c3c(Cl)cccc3Cl)noc2C)c(OC)c1	20%
CC(NC(=O)OCc1ccccc1)C(=O)NCC1CCCO1 (stereo not drawn)	-7%
CCOc1ccc(-c2noc(=O)[nH]2)cc1	-7%
COc1cc(/C=C2/C(=O)N(c3ccc([N+](=O)[O-])cc3)N=C2N2CCOCC2)ccc1O	?
O=S(=O)(NNC(=S)Nc1ccc(S(=O)(=O)Nc2ncccn2)cc1)c1ccc(Br)cc1	9%
CCCCOC(=O)c1ccc(NC(=S)NC(=O)c2ccco2)cc1	-7%
CC(=O)Nc1ccc(NC(=O)CSc2ccc([N+](=O)[O-])cn2)cc1	12%
CC(=O)N1CCc2cc(Br)cc(S(=O)(=O)N3CCN(c4ccccn4)CC3)c21	-23%
CC(=O)N1CC(C)Sc2ccc(S(=O)(=O)NC(C)c3ccccc3)cc21 (stereo not drawn)	-18%
COc1ccccc1OCC(=O)NNC(=O)Nc1ccccc1	3%
Cc1cc(OC(C)C(=O)NCCCn2ccnc2)c2c(C)cc(=O)oc2c1 (stereo not drawn)	2%
O=C(CN1CCN(C(=O)c2cccc(S(=O)(=O)N3CCCC3)c2)CC1)Nc1ccc(F)cc1	-1%
COc1ccc(NC(=O)NC(C)c2ccc3c(c2)OCO3)c(OC)c1 (stereo not drawn)	-10%
COc1cccc(C(=O)C[n+]2cccc3cc(OC)ccc32)c1	4%
O=C(O)CSCNC(=O)C12CC3CC(CC(C3)C1)C2	-11%
CC(C)NC(=S)N/N=C/c1ccc(C(C)(C)C)cc1	4%
O=S(=O)(c1ccc(F)cc1)N1CCN(S(=O)(=O)c2ccc3c(c2)OCCO3)CC1	0%
O=C(COc1ccccc1)Nc1cccc2c1CCCC2	-4%
COc1ccc(Cl)cc1NC(=O)COC(=O)c1ccc(C)o1	-4%
N#CC(C#N)=C1NC2(CCCCC2)Cc2ccccc21	0%
C/C(CC(=O)Nc1c(C)cc(C)cc1C)=N\NC(=O)Cc1ccccc1	2%
COc1cc(-c2nc3cc(C)ccn3c2NC2CCCCC2)ccc1-c1ccc(C(C)=O)cc1	1%
CC(=O)c1nc2ccccc2n1S(=O)(=O)c1ccc(C)cc1	5%

Not a retest: an excerpt of the list.
SMILES	VDR inh
CCOc1ccc(-c2noc(=O)[nH]2)cc1	-7%
COc1cc(/C=C2/C(=O)N(c3ccc([N+](=O)[O-])cc3)N=C2N2CCOCC2)ccc1O	?
O=S(=O)(NNC(=S)Nc1ccc(S(=O)(=O)Nc2ncccn2)cc1)c1ccc(Br)cc1	9%
CCCCOC(=O)c1ccc(NC(=S)NC(=O)c2ccco2)cc1	-7%
CC(=O)Nc1ccc(NC(=O)CSc2ccc([N+](=O)[O-])cn2)cc1	12%
CC(=O)N1CCc2cc(Br)cc(S(=O)(=O)N3CCN(c4ccccn4)CC3)c21	-23%
CC(=O)N1CC(C)Sc2ccc(S(=O)(=O)NC(C)c3ccccc3)cc21 (stereo not drawn)	-18%
COc1ccccc1OCC(=O)NNC(=O)Nc1ccccc1	3%
Cc1cc(OC(C)C(=O)NCCCn2ccnc2)c2c(C)cc(=O)oc2c1 (stereo not drawn)	2%
O=C(CN1CCN(C(=O)c2cccc(S(=O)(=O)N3CCCC3)c2)CC1)Nc1ccc(F)cc1	-1%
COc1ccc(NC(=O)NC(C)c2ccc3c(c2)OCO3)c(OC)c1 (stereo not drawn)	-10%
COc1cccc(C(=O)C[n+]2cccc3cc(OC)ccc32)c1	4%
O=C(O)CSCNC(=O)C12CC3CC(CC(C3)C1)C2	-11%
CC(C)NC(=S)N/N=C/c1ccc(C(C)(C)C)cc1	4%
O=S(=O)(c1ccc(F)cc1)N1CCN(S(=O)(=O)c2ccc3c(c2)OCCO3)CC1	0%
O=C(COc1ccccc1)Nc1cccc2c1CCCC2	-4%
COc1ccc(Cl)cc1NC(=O)COC(=O)c1ccc(C)o1	-4%
N#CC(C#N)=C1NC2(CCCCC2)Cc2ccccc21	0%
C/C(CC(=O)Nc1c(C)cc(C)cc1C)=N\NC(=O)Cc1ccccc1	2%
COc1cc(-c2nc3cc(C)ccn3c2NC2CCCCC2)ccc1-c1ccc(C(C)=O)cc1	1%
CC(=O)c1nc2ccccc2n1S(=O)(=O)c1ccc(C)cc1	5%

Additional compounds:
SMILES	VDR inh
O=C(CN1CCN(CC(=O)Nc2ccccc2F)CC1)Nc1ccc(Cl)c(C(F)(F)F)c1	6%
COc1ccc(C)cc1C(=O)CCC(=O)Nc1ccccc1N1CCOCC1	9%
CCOc1cc(C(=O)NCc2ccc(C)cc2)ccc1OCC(=O)N1CCOCC1	6%
CC(C)(C)OC1NS(=O)(=O)OCC1NCOC(Cl)(Cl)Cl (stereo not drawn)	?
COc1cc(CN2CCN(C(=O)c3ccccc3F)CC2)cc(OC)c1OC	-16%
N#Cc1cc2c(nc1SCC1COc3ccccc3O1)CCC2 (stereo not drawn)	13%
COc1ccc(CN(C(=S)Nc2ccccc2)C2CC(=O)N(c3ccc(Cl)cc3)C2=O)cc1 (stereo not drawn)	-2%
O=C(c1ccc(Cl)cc1)c1cccc(O)c1	-9%
CCOC(=O)C1CCN(C(=O)c2cc3cc(Br)ccc3oc2=O)CC1	-3%
CC1=C(C(=O)OCc2ccccc2)C(/C=C/c2ccccc2)NC(=S)N1 (stereo not drawn)	-13%
COc1cccc(OC)c1C(=O)Nc1sc2c(c1C(N)=O)CCCC2	1%
CN(C(=O)COC(=O)c1cc(=O)[nH]c2ccccc12)c1c(N)n(Cc2ccccc2)c(=O)[nH]c1=O	3%
COc1ccc(C)cc1Nc1cc(C)nc2nc(C)nn12	-5%
CC(C)(C)NC(=O)CN(Cc1cccs1)C(=O)CN1C(=O)C(=O)c2ccccc21	-8%
COc1ccc(N(CC(=O)Nc2ccccc2C(=O)N2CCCC2)S(=O)(=O)c2ccccc2)cc1	18%
CCCC1(C(=O)OCC)NC(c2ccco2)C2C(=O)N(C)C(=O)C21 (stereo not drawn)	-11%
O=C(CCc1ccccc1)N1CCc2c([nH]c3ccccc23)C1c1ccc(Cl)cc1 (stereo not drawn)	-16%
Nc1nc2c(nc(Br)n2[C@@H]2O[C@@H]3COP(=O)(O)O[C@H]3[C@H]2O)c(=O)[nH]1	-12%
Cc1cc(C(=O)N/N=C/c2cccn2C)n[nH]1	-5%
Cc1ccc(S(=O)(=O)CC(=O)N2CCOCC2)cc1	14%
CC(=O)n1cc(C(C[N+](=O)[O-])SCCN)c2ccccc21 (stereo not drawn)	22µM*
COc1cc[n+]([O-])cc1[N+](=O)[O-]	6%
COC(=O)c1ccc(CNC(=O)CN(CCC(C)C)S(=O)(=O)c2ccc3c(c2)OCCO3)cc1	-15%
O=C(COC(=O)CCC(=O)c1ccc(F)cc1)Nc1cccc(S(=O)(=O)N2CCCC2)c1	1%
CC(C)(C)NC(=O)NC(=O)COC(=O)c1cc[n+]([O-])cc1	-12%
COc1cc2c(cc1OC)C(c1cccc(C)c1)CC(=O)N2 (stereo not drawn)	7%
Cc1ccc(-n2nc(C)c(=O)c(-c3ccccc3)c2NC(=O)c2cccs2)cc1	-14%
COc1cccc(N2C(=O)C(O)=C(C(C)=O)C2c2ccc(OC)c(OC)c2)c1 (stereo not drawn)	-3%
CC(C(=O)NCc1cccs1)N1CCN(S(=O)(=O)c2ccc3c(c2)OCCCO3)CC1 (stereo not drawn)	-10%
O=c1oc(-c2ccccc2NS(=O)(=O)c2ccccc2)nc2ccccc12	5%
Cc1cc2c(cc1C)N(C(=O)CCl)CCN2C(=O)CCl	?
Cc1ccccc1OCCCC(=O)Nc1ccc2c(c1)OCO2	2%
CCOC(=O)[C@@H]1[C@H]2COc3cc(OC)ccc3[C@@H]2N2C(=O)N(c3cccc(F)c3)C(=O)[C@]12C	?
Cc1ccc(S(=O)(=O)N2CCN(CCc3ccncc3)CC2)cc1	-6%
Cc1cccc(C)c1OCC(O)CNC(C)c1ccccc1 (stereo not drawn)	3%
O=C(NCCCN1CCOCC1)c1ccccc1NS(=O)(=O)c1ccc(F)cc1	-2%
Cc1ccc(-c2nnc3ccccc3c2C(=O)Nc2cccc(Cl)c2)cc1	1%
